# From PubChem
# StopGo FLuc: lowers the firefly signal of an FMDV 2A StopGo reporter; 120,000 compounds, 0.23% hits; Potency, µM (titrated, usually from 57.5 µM), inactives show top-dose signal change, negative = less light; HEK cells with a luciferase reporter of 2A StopGo recoding; AID 1745856; active = well fitted falling curve with a large enough effect; inconclusive = small, poorly fitted or top-dose-only effect; inactive = no such curve, though single readings can be large or run the other way; note: nearly all actives have a fitted effect of over 60% in size; overnight with compound
# StopGo RLuc: FMDV 2A StopGo reporter, Renilla signal | HEK cells with a luciferase reporter of 2A StopGo recoding | Potency, µM (series often up to 57.5 µM), for the others: top-dose signal change, negative = less light | 120,000 compounds, 0.32% hits | AID 1745857; active means well fitted falling curve with a large enough effect; inconclusive means small, poorly fitted or top-dose-only effect; inactive means no such curve, though single readings can be large or run the other way; note: nearly all actives have a fitted effect of over 55% in size; overnight with compound
# * hit, by the source's call; ? = inconclusive; [ ] = another dose, or the depositor's remark. % is set by controls: 0 for no effect and ±100 for the full control effect; potency is the fitted concentration of half-maximal effect. This is a subset, so the mix of outcomes need not match the whole.
SMILES,StopGo FLuc,StopGo RLuc
O=C(Nc1cc(=O)[nH]c2nc(C(F)(F)F)nn12)c1ccc(Cl)cc1Cl,0.0%,25.7%
Cc1ccc(NC(=O)Cn2c(-c3cncs3)nc3ccccc32)c(Br)c1,-16.6%,7.0%
COC(=O)c1c(COc2ccc(C)nc2[N+](=O)[O-])nc2ccccc2c1-c1ccccc1,-28.3%,?
CCc1ccc2oc(C(=O)Nc3cccc(C(F)(F)F)c3)cc(=O)c2c1,-14.4%,-10.2%
Cc1ccc(NC(=O)c2ccc(CNS(=O)(=O)c3ccc4c(c3)C(C)(C)C(=O)N4C)cc2)cc1,-6.1%,1.8%
CN1C(=O)CCS(=O)(=O)C1c1ccc(Cl)cc1 (configuration not stated),-6.1%,0.1%
CC(/C=C/c1ccccc1)=N/Nc1ccc([N+](=O)[O-])cc1,116.0%[activator],3.5%
COc1cc2[nH]c(=O)n(CCCCCC(=O)N3CCN(c4ccc(Cl)cc4)CC3)c(=O)c2cc1OC,2.1%,7.1%
CCOC(=O)/C(C#N)=C\c1cc(Cl)c(OC)c(OCC)c1,20.0%,18.8%
COc1ccccc1N1CCN(C(=O)c2ccc3c(c2)CCN3S(=O)(=O)c2ccccc2)CC1,?,66.5%[activator]
Cc1c(NCC(=O)Nc2ccccc2C(C)C)cccc1C(=O)N1CCc2sccc2C1,-10.5%,15.9%
COC(=O)CCSc1nc2sc3c(c2c(=O)n1Cc1ccccc1)CCC(C(C)(C)C)C3 (configuration not stated),36.8%[activator],4.9%
CCN(CC)S(=O)(=O)c1ccc(OC)c(NC(=O)c2nn(C)c(=O)c3ccccc23)c1,42.4%[activator],26.4%
O=S(Cc1cccc(Cl)c1)Cc1cccc(C(F)(F)F)c1 (configuration not stated),?,33.5%[activator]
CC(C)Cc1nn2cc(-c3cccc(Br)c3)nc2s1,99.7%[activator],21.2%
Cc1ccccc1-c1nc2ccc(NC(=O)C3CC3)cc2o1,234.4%[activator],8.9%
COc1ccccc1OC(C)C(=O)NCC1(N2CCOCC2)CCCCC1 (configuration not stated),6.0%,11.6%
Cc1ccnc2nc(C(=O)OC(C)C(=O)c3c[nH]c4ccccc34)nn12 (configuration not stated),21.1%,9.6%
CCc1ccc(S(=O)(=O)Nc2ccc(N3CCCS3(=O)=O)cc2)s1,3.1%,193.1%[activator]
COc1ccc(Cl)cc1NC(=O)CSc1cn(CC(=O)N2CCCCCC2)c2ccccc12,?,-26.8%
Cc1csc2nc(-c3cccc(NS(=O)(=O)c4cccs4)c3)cn12,22.4%,167.3%[activator]

# Not a retest: entries from further up.
SMILES,StopGo FLuc,StopGo RLuc
O=C(Nc1cc(=O)[nH]c2nc(C(F)(F)F)nn12)c1ccc(Cl)cc1Cl,0.0%,25.7%
Cc1ccc(NC(=O)Cn2c(-c3cncs3)nc3ccccc32)c(Br)c1,-16.6%,7.0%
COC(=O)c1c(COc2ccc(C)nc2[N+](=O)[O-])nc2ccccc2c1-c1ccccc1,-28.3%,?

# Individual results from above.
# Entry of Cc1csc2nc(-c3cccc(NS(=O)(=O)c4cccs4)c3)cn12 in StopGo FLuc: 22.4%
# Entry of CCc1ccc2oc(C(=O)Nc3cccc(C(F)(F)F)c3)cc(=O)c2c1 in StopGo RLuc: -10.2%

# Random excerpt: two entries already listed
SMILES,StopGo FLuc,StopGo RLuc
CCOC(=O)/C(C#N)=C\c1cc(Cl)c(OC)c(OCC)c1,20.0%,18.8%
Cc1ccc(NC(=O)c2ccc(CNS(=O)(=O)c3ccc4c(c3)C(C)(C)C(=O)N4C)cc2)cc1,-6.1%,1.8%

# Whole records as entered above. Order of screens: StopGo FLuc, StopGo RLuc
# Shown for CCN(CC)S(=O)(=O)c1ccc(OC)c(NC(=O)c2nn(C)c(=O)c3ccccc23)c1 : 42.4%[activator], 26.4%
# Shown for CCc1ccc(S(=O)(=O)Nc2ccc(N3CCCS3(=O)=O)cc2)s1 : 3.1%, 193.1%[activator]
# Shown for COc1ccccc1OC(C)C(=O)NCC1(N2CCOCC2)CCCCC1 (configuration not stated) : 6.0%, 11.6%
